Assay outcomes (PubChem BioAssay)
StopGo RLuc – lowers the Renilla signal of an FMDV 2A StopGo reporter; HEK cells with a luciferase reporter of 2A StopGo recoding; Potency, µM (highest dose often 57.5 µM), without a hit: at the top dose signal change, negative = less light; 120,000 tested, 0.32% active; active means well fitted falling curve with a large enough effect; inconclusive means small, poorly fitted or top-dose-only effect; inactive means no such curve, though single readings can be large or run the other way; further: nearly all actives have a fitted effect of over 55% in size; overnight with compound
2A firefly – lowers the firefly signal of an FMDV 2A StopGo reporter; HEK cells with a luciferase reporter of 2A StopGo recoding; Potency, µM (series often up to 57.5 µM), for the others: top-dose signal change, negative = less light; 120,000 tested, 0.23% active; AID 1745856; active = well fitted falling curve with a large enough effect; inconclusive = small, poorly fitted or top-dose-only effect; inactive = no such curve, though single readings can be large or run the other way; further: nearly all actives have a fitted effect of over 60% in size; overnight with compound
Active calls of the source: *; ? = inconclusive; [ ] = remark or other dose. On the % scale 0 is the no-effect control and ±100 the full control effect; potency means the concentration at half of the fitted maximal effect.

SMILES	StopGo RLuc	2A firefly
CCC(C)c1ccc(-c2csc(NC(=O)Cn3ncc4ccccc4c3=O)n2)cc1 (stereo not drawn)	-12%	59%[activator]
CCOC(=O)c1cnc2ccc(OC)cc2c1Nc1cccc(C(C)=O)c1	172%[activator]	9%
CCn1c(SC(C)C(=O)c2ccc(Br)cc2)n[nH]c1=O (stereo not drawn)	-11%	-5%
Nc1nonc1-c1nc2ccccc2n1CC(=O)Nc1ccc(F)cc1	25%	-4%
Cc1ccc(-n2nnnc2CNS(=O)(=O)c2ccc(Cl)cc2)cc1C	163%[activator]	7%
Cc1cccc(Oc2nc3c(C)cccn3c(=O)c2/C=C(\C#N)c2nc3ccccc3[nH]2)c1	-12%	-12%
COc1ccc(NC(=O)CCc2nnc3n(C)c(=O)c4sccc4n23)cc1Cl	-6%	-10%
CCC(Sc1nc2n[nH]c(C)c2c(=N)n1-c1ccc(Br)cc1)C(=O)N(CC)CC (stereo not drawn)	?	?
O=C(CSc1c2c(nc3ccc(Cl)cc13)CCCC2)N1CCN(c2cccc(Cl)c2)CC1	-23%	-13%
COc1cc(-c2cc(OC)c3c(C)oc(C)c3c(=O)c2)ccc1OC(=O)c1cccc(C)c1	-7%	-15%
O=c1oc2ccc(Br)cc2cc1-c1nc(-c2ccccc2)no1	3%	-4%
COCCn1c(C(=O)NCc2ccccc2)nc2ccccc2c1=O	25%	9%
COc1ccc(NC(=O)Cn2nc(N3CCCCC3)c3ccccc3c2=O)cc1	-6%	2%
Cc1ccc(NCc2cccn2-c2nnc(N3CCC(C(=O)NCCc4ccccc4)CC3)s2)cc1	26%	36%[activator]
COc1ccc(-n2nc3cc(C)c(NC(=O)c4ccc(-c5ccc(Br)cc5)o4)cc3n2)cc1	9%	113%[activator]
O=C(Nc1ccccc1C(F)(F)F)Nc1c(N2CCCC2)c2ccccc2oc1=O	19%	-2%
O=C(COc1ccccc1Cl)Nc1ccc(-c2nc3ccccc3s2)cc1	-6%	-31%
O=C(COc1ccc2ccc(=O)oc2c1)NC1CCS(=O)(=O)C1 (stereo not drawn)	-7%	-2%
COc1ccc(Nc2nc(NCc3ccc4c(c3)OCO4)nc3nccnc23)cc1	-3%	10%
Cc1ccc(Nc2cc(C(=O)NC3CCCC3)c3ccccc3n2)cc1C	?	-2%
Cc1ccc(S(=O)(=O)N2CCCc3cc(NC(=O)c4c(F)cccc4F)ccc32)cc1	88%[activator]	-3%
COc1ccc(/C=C/c2nc3cc(Cl)ccc3o2)cc1OC	-4%	54%[activator]
Cc1nc(-c2ccc(C)c(N3CCN(C(=O)Nc4ccccc4C(F)(F)F)CC3)c2)no1	-6%	-10%
O=C(CCC(=O)N1CCC(c2noc3ccc(F)cc23)CC1)N1CCCC1	-13%	-1%
Fc1ccc(CNC(=S)Nc2cccc3ccccc23)cc1	286%[activator]	21%
O=C1OC(c2ccc(Br)o2)=N/C1=C/c1cc(Br)cs1	-5%	3%
CC(C)c1ccc(NC(=O)c2cc(S(=O)(=O)NCc3ccccc3Cl)ccc2F)cc1	85%[activator]	-6%
O=C(CCNC(=O)c1cccs1)Nc1cc(Cl)ccc1Cl	-1%	10%
Cc1cccc(NC(=O)COC(=O)CCCC2=NS(=O)(=O)c3ccccc3N2)c1	-1%	-7%
CCCCOC(=O)c1ccc(NC(=O)CCc2ncc(-c3ccccc3)o2)cc1	3%	68%[activator]
COc1ccc(-c2csc(=Nc3ccccc3)n2CCO)cc1F	36%[activator]	2%
COc1ccc(CCNC(=O)Cc2c(C)c3cc4c(C)coc4c(C)c3oc2=O)cc1	-5%	-8%
CC1(C(=O)NCc2ccccc2)Cn2nc(-c3ccccc3)cc2C(=O)N1CCc1ccco1 (stereo not drawn)	96%[activator]	10%
Cc1cccc(Oc2coc3cc(OCC(=O)OC4CCCCC4)ccc3c2=O)c1	-11%	-2%
Cc1ccc(Cl)cc1NC(=O)CNC(=O)N1CC(=O)Nc2ccccc21	5%	9%
Cc1cccc(-c2noc(-c3ccccc3NC(=O)C3CC(=O)N(c4ccccc4C)C3)n2)c1 (stereo not drawn)	-14%	-15%
O=C(Cn1ccc(=O)[nH]c1=O)NC(c1ccccc1)c1cccs1 (stereo not drawn)	4%	5%
CCn1c(SCC(=O)Nc2cccc(C(C)=O)c2)nnc1-c1cc2ccccc2o1	3%	26%
CCCCCCCCC#CC#Cc1cccc(C(=O)O)c1	-1%	182%[activator]
Cc1ccc(Cn2cc(C(=O)c3ccc(F)cc3)c(=O)c3cc4c(cc32)OCCO4)cc1	-5%	-12%
COc1ccc(NC(=O)c2cc3c([nH]c2=O)CC(c2ccccc2)CC3=O)cc1 (stereo not drawn)	-11%	-20%
Cc1ccc(S(=O)(=O)NC2CC2)cc1C(=O)Nc1ccccc1C(C)C	27%	-7%
C/C(=N\NC(N)=O)c1ccc(Br)cc1	24%	39%[activator]
CC(C)Cn1c(=O)c2sccc2n2c(CCCC(=O)NCC(C)c3ccccc3)nnc12 (stereo not drawn)	8%	-8%
CN1CCN(c2nc3c(S(=O)(=O)c4ccc(Cl)cc4)nnn3c3ccsc23)CC1	11%	-13%
CCC(O)C1=C(c2ccccc2)Oc2ccccc2C1c1ccccc1 (stereo not drawn)	-6%	-13%
O=C(CSc1nc(=O)n(Cc2ccncc2)c2c1CCC2)N1CCCC1	-8%	-2%
O=C(Nc1ccc(-c2nc3ccccc3o2)cc1)c1ccc(Cl)c([N+](=O)[O-])c1	-4%	61%[activator]
Cc1nc2cccnc2n1-c1cccc(C(=O)NCc2cccc(Cl)c2)c1	?	?
Cc1ccc(-c2noc(CNc3ccc(F)cc3C)n2)cc1	-3%	0%

Further results follow.
SMILES	StopGo RLuc	2A firefly
CC1(C)CC(Nc2nc3ccccc3nc2NS(=O)(=O)c2ccc3c(c2)OCCO3)CC(C)(C)N1	92%[activator]	0%
COc1cccc(-c2nnc(SCC(=O)N3CCc4ccccc43)o2)c1	-4%	-11%
COc1cc(C(=O)OCCCN2CCCN(CCCOC(=O)c3cc(OC)c(OC)c(OC)c3)CC2)cc(OC)c1OC	25%	-4%[11.5 µM]
Cc1ccc(-c2cn(-c3cccc(Cl)c3)c(S(=O)(=O)CC(=O)Nc3ccccc3F)n2)cc1	16%	77%[activator]
COc1ccc(C(=O)NCC2CCCCC2)cc1S(=O)(=O)N(C)C	24%	66%[activator]
O=C(CSc1oc(-c2ccccc2)nc1S(=O)(=O)c1ccc(Cl)cc1)c1ccccc1	151%[activator]	40%[activator]
Cc1csc(NC(=O)Cn2ccc(=O)n(C)c2=O)n1	-9%	-9%
Cc1ccc(Nc2nc(CSc3nnc4n3CCCCC4)cs2)cc1C	-8%	157%[activator]
COc1cc(/C=C(/C#N)c2ccc(C(F)(F)F)cn2)cc(OC)c1O	-1%	33%[activator]
CC(=O)Nc1ccc(-c2csc(NC(C)(C)C)n2)cc1	37%[activator]	89%[activator]
Cn1c(=O)c(-c2noc(C(=O)NCc3ccco3)n2)nn(-c2ccccc2)c1=O	-5%	-3%
Cc1ccc2oc3c(c(=O)c2c1)C(c1ccc(F)cc1)N(c1nc(C)c(C)s1)C3=O (stereo not drawn)	-9%	-8%
CC(=O)Nc1ccc(Cl)c(-c2nc3cc(C)ccc3o2)c1	-7%	92%[activator]
N#Cc1ccnc(Sc2ccc(F)cc2)c1	7%	7%
Cc1ccc(N(CC(=O)N2CCc3ccccc3C2)S(C)(=O)=O)cc1Cl	58%[activator]	14%
CCCSc1nc2sc3c(c2c(=O)n1-c1ccccc1)CCC(C)C3 (stereo not drawn)	-17%	-6%
Cc1ccc2c(CN3CCN(CCc4ccncc4)CC3)cc(=O)oc2c1	-9%	-10%
CCOC(=O)/C=C/c1ccc(NC(=O)c2ccc(CN3CCOCC3)cc2)cc1	?	?
CCOC(=O)CN1C(=O)N(c2ccc(C)c(C)c2)S(=O)(=O)c2ccccc21	15%	-6%
COc1ccc(-c2nc(C(=O)N3CCC(C)CC3)nn2-c2ccccc2Cl)cc1	12%	-4%
COc1cccc(CN(C)C(=O)CN2CCC(c3nc4ccccc4s3)CC2)c1OC	?	?
Cc1cc(C)c2oc(C(=O)N(Cc3ccc(C)o3)c3ccccn3)cc(=O)c2c1	0%	20%
O=C(c1ccc2c(c1)N(Cc1cccc(Cl)c1)C(=O)c1ccccc1S2(=O)=O)N1CCCC1	34%[activator]	-15%
Cc1[nH]c2ccccc2c1SCCNC(=O)c1ccc2ccccc2c1	?	?
Cc1cccc(C(=O)Nc2nnc(S(=O)(=O)N(C)Cc3ccco3)s2)c1	15%	53%[activator]
Cc1ccc(OCCNC(=O)Cc2c[nH]c3ccccc23)c(C)c1	16%	21%
CCCn1cc(S(=O)(=O)c2ccccc2)c(=O)c2cc(F)c(N3CCCC3)cc21	26%	-4%
Cc1ccc(NC(=O)Cn2cc(C(=O)C3CC3)c3ccccc32)c(C)c1	7%	5%
Cc1sc2ncn(CC(=O)NC3CCCc4ccccc43)c(=O)c2c1C (stereo not drawn)	-1%	-3%
CC1CCN(C(=O)CN2CC(C)Sc3ccccc32)CC1 (stereo not drawn)	-7%	1%
COc1ccc2cc(CN(C)C(=O)c3ccc4c(c3)OCO4)ccc2c1	28%	11%
O=C(OCc1cc(=O)n2nc(C3CC3)sc2n1)c1ccc(NC(=O)c2ccccc2Cl)cc1	119%[activator]	6%
CCC(C)NC(=O)CSc1nc2cc3c(cc2c(=O)n1CCCC(=O)NCCc1ccc(OC)c(OC)c1)OCO3 (stereo not drawn)	-6%	-11%
c1ccc(-c2sc(-c3ccccc3)c(-c3ccccc3)c2-c2ccccc2)cc1	22%	36%[activator]
Cc1ccc(Cl)cc1N1CCN(C(=O)Cn2nc(C)c3sc4ccccc4c3c2=O)CC1	-6%	-8%
COc1cc(C2CC(=O)Nc3c(-c4ccc(Cl)cc4)nsc32)cc2c1OCO2 (stereo not drawn)	-4%	-6%
CNS(=O)(=O)c1ccc(NC(=O)CCc2c(C)nc3c4ccccc4nn3c2C)cc1	-8%	0%
CCOc1ccc(C(=O)Nc2nc(C)cs2)cc1OCC	-6%	162%[activator]
COc1ccc(C=O)cc1OCc1ccc(F)cc1Cl	52%[activator]	153%[activator]
Cc1nn(C)c2c1c(C(F)(F)F)cc(=O)n2CC(=O)NC(C)(C)C	-12%	-19%
CCNc1cc(N2CCN(C3CCCCC3)CC2)c2noc3c2c1C(=O)c1ccccc1-3	2%	-25%
O=C(CSc1nnc(-c2ccncc2)n1-n1cccc1)Nc1ccc2c(c1)OCO2	1%	9%
CCOC(=O)Nc1ccc(NS(=O)(=O)c2ccc(C)cc2Cl)cc1	298%[activator]	8%
O=C(Nc1c(-c2ccccc2)nc2sccn12)c1cccc(S(=O)(=O)N2CCCC2)c1	43%[activator]	17%
COc1cc2nc(CN(C)CC(=O)Nc3ccc(F)cc3)[nH]c(=O)c2cc1OC	17%	16%
CCN(CC)C(=O)C1=C(C)N(Cc2ccccc2)C(=O)NC1c1ccc(F)cc1F (stereo not drawn)	-1%	1%
O=C(Cc1ccccc1Cl)NC1CCC(c2ccccc2)CC1 (stereo not drawn)	13%	125%[activator]
Nc1nccnc1C(=O)NCCc1ccccc1F	6%	55%[activator]
COc1ccccc1NC(=O)C1=C(C)Nc2nc(-c3ccco3)nn2C1c1ccccc1F (stereo not drawn)	-6%	-11%
Cc1ccc(CNC(=O)c2c(-c3ccc(Br)cc3)noc2C)o1	-9%	-15%

Taken from the listing (2 entries):
SMILES	StopGo RLuc	2A firefly
COc1ccccc1NC(=O)C1=C(C)Nc2nc(-c3ccco3)nn2C1c1ccccc1F (stereo not drawn)	-6%	-11%
Cc1ccc(CNC(=O)c2c(-c3ccc(Br)cc3)noc2C)o1	-9%	-15%

The list continues.
SMILES	StopGo RLuc	2A firefly
COc1ccc(NC(=O)COc2ccc(F)cc2)c2cccnc12	?	?
CCC(Sc1nnc2c3ccccc3n(C)c2n1)C(=O)Nc1nnc(C(C)C)s1 (stereo not drawn)	-5%	-9%
CCC(=O)Nc1ccc2c(c1)nc(CCNC(=O)c1ccc(C)c(F)c1)n2C	-17%	3%
CS(=O)(=O)N1CCc2cc(S(=O)(=O)NCc3ccccc3Cl)ccc21	-5%	6%
Cc1occc1-c1nc(-c2ccccc2)no1	14%	138%[activator]
Cc1c(CCC(=O)N2CCCCC2)c(=O)oc2cc(O)ccc12	41%[activator]	32%[activator]
COc1ccccc1CN1CCC(CNS(=O)(=O)c2cc(-c3onc(C)c3C)ccc2OC)CC1	72%[activator]	-10%

3 of the compounds above, with each value named.
Cc1ccc(S(=O)(=O)NC2CC2)cc1C(=O)Nc1ccccc1C(C)C
  StopGo RLuc: 27%	2A firefly: -7%

C/C(=N\NC(N)=O)c1ccc(Br)cc1
  StopGo RLuc: 24%	2A firefly: 39%[activator]

CC(C)Cn1c(=O)c2sccc2n2c(CCCC(=O)NCC(C)c3ccccc3)nnc12 (stereo not drawn)
  StopGo RLuc: 8%	2A firefly: -8%
